High-throughput results deposited in PubChem BioAssay by The Scripps Research Institute Molecular Screening Center.
CHO parental Ca: counter-screen: ATP calcium response change in parental CHO cells | 0.63% of 330,000 active | parental CHO-K1, ATP-induced calcium, Fluo-8 fluorescence | inhibition, % at 5.6 µM;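 active = inhibition above that plate's mean sample inhibition plus 3 SD, cut at about 26% in these data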;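 note: 0% = ATP-challenged DMSO wells and 100% = DMSO wells without ATP; some compounds past the cut are filed as inactive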
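Material – parental CHO cells · Reagent – ATP stimulus · Compound – single nominal dose of 5.6 µM per compound · Detection – Fluo-8 fluorescence · Read-out basis – percent inhibition of calcium signal · Controls – ATP-challenged DMSO wells low, unchallenged DMSO wells high · Repeats – no replicates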
TAAR1 antag: antagonists of human TAAR1; Q96RJ0; CHO RD-HGA16 TAAR1, Fluo-8 calcium fluorescence, antagonist; inhibition, % at 3 µM; 1.5% of 360,000 active; AID 624466;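 active = inhibition above a per-plate cutoff, the mean inhibition of test compounds on that plate plus 3 SD, cut at about 49% in these data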;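 note: 0% = DMSO plus EC80 beta-PEA response and 100% = DMSO alone without agonist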
Target sequence (Q96RJ0 whole entry, looked up): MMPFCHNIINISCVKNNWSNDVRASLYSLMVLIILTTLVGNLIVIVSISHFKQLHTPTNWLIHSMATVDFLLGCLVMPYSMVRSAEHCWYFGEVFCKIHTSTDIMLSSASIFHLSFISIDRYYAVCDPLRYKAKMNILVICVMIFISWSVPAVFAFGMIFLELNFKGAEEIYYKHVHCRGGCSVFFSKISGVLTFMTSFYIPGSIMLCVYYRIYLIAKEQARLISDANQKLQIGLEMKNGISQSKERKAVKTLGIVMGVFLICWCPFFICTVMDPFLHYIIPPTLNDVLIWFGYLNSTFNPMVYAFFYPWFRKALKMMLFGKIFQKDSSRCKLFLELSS
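System: CHO RD-HGA16 cells bearing hTAAR1. Reagent: EC80 β-phenethylamine stimulus. Schedule: seeding 17-24 h prior, 75-min 37 °C, 30-min RT dye loading. Signal: Fluo-8 intracellular calcium dye fluorescence, real-time kinetic reads. Read-out: % inhibition from peak post-agonist over basal fluorescence ratio. Benchmarks: vehicle wells and EC80 agonist wells. Replicates: n of 1.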
TAAR1 ag: human TAAR1 agonism; Q96RJ0; CHO RD-HGA16 TAAR1, Fluo-8 calcium fluorescence; vehicle wells 0%, saturating PEA agonist 100%; activation, % at 3 µM; 0.99% of 360,000 active;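 active = activation above the mean activation of all test compounds in the run plus 3 SD, cut at about 38% in these data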
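Assay system: CHO-derived RD-HGA16 cells with stable Gα16 and human TAAR1; timing: 17-24 h seeding, 75 min 37 °C dye, 30 min RT; read-out: % activation from peak over basal fluorescence ratio, DMSO-to-PEA scaled; measured by: kinetic Fluo-8 calcium fluorescence; benchmarks: low control DMSO, high control PEA (EC100); doses: 3 µM single concentration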
OXTR potentiator: potentiators of human oxytocin receptor | P30559 | CHO-OTR cells, Fluo-8 calcium fluorescence, potentiator mode; 0% = oxytocin EC15, 100% = EC100 | activation, % at 3 µM | 0.061% of 320,000 active | AID 2445;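 active = activation above that plate's cutoff, the mean activation of tested compounds plus 3 SD, cut at about 6.6% in these data, passing the limit was not always enough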;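 note: 100% uses oxytocin at 75 nM as the full agonist control; some results filed as inactive read as strong as hits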
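Material: human OTR in CHO cells. Compound: 3.0 µM, one dose. Timing: compound 6 min at room temperature before oxytocin, 100 s read. Evaluation: % activation of max/min ratio relative to oxytocin controls. Replication: single well per compound, singlicate. Signal: Fluo-8 calcium dye fluorescence.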
Numbers without * were called inactive; nt = not tested or not shown; & = joins results of further samples.

SMILES	CHO parental Ca	TAAR1 antag	TAAR1 ag	OXTR potentiator
C[N+]1(C)C2CC(OC(=O)[C@H](CO)c3ccccc3)CC1C1OC12 (stereo not given in full)	-4.8	-11.6	0.1	-3.4
O=[N+]([O-])c1ccccc1Cl	-14.0	10.2	2.6	-2.6
N#CC(C#N)=Cc1ccc(O)c(O)c1	-1.5	-24.0	3.4	-2.2
N#C[C@H](O[C@@H]1O[C@H](CO[C@@H]2O[C@H](CO)[C@@H](O)[C@H](O)[C@H]2O)[C@@H](O)[C@H](O)[C@H]1O)c1ccccc1	0.4	8.1	1.4	0.7
C=CCN1CC[C@]23c4c5ccc(O)c4O[C@H]2C(=O)CC[C@@]3(O)[C@H]1C5	-2.8&-14.8	-15.0&-20.5	1.2&7.5	-8.4&-0.6
C[C@H]1C[C@@H](C)C(=O)[C@@H]([C@H](O)CC2CC(=O)NC(=O)C2)C1	-6.6	-19.3	2.0	5.0
COc1ccc2c(c1)[C@]13CCCCC1C(C2)N(C)CC3 (stereo not given in full)	-11.2	16.0	9.9	-2.0
C=CCN1CC[C@]23c4c5ccc(O)c4OC2C(=O)CC[C@@]3(O)C1C5 (stereo not given in full)	2.3	-6.4	1.6	-4.9
c1ccc2c(c1)cc1ccc3cccc4ccc2c1c34	nt	-30.1	2.8	nt

Part of the list above in order of SMILES length, highest first:
SMILES	CHO parental Ca	TAAR1 antag	TAAR1 ag	OXTR potentiator
N#C[C@H](O[C@@H]1O[C@H](CO[C@@H]2O[C@H](CO)[C@@H](O)[C@H](O)[C@H]2O)[C@@H](O)[C@H](O)[C@H]1O)c1ccccc1	0.4	8.1	1.4	0.7
C=CCN1CC[C@]23c4c5ccc(O)c4O[C@H]2C(=O)CC[C@@]3(O)[C@H]1C5	-2.8&-14.8	-15.0&-20.5	1.2&7.5	-8.4&-0.6
C=CCN1CC[C@]23c4c5ccc(O)c4OC2C(=O)CC[C@@]3(O)C1C5 (stereo not given in full)	2.3	-6.4	1.6	-4.9
C[N+]1(C)C2CC(OC(=O)[C@H](CO)c3ccccc3)CC1C1OC12 (stereo not given in full)	-4.8	-11.6	0.1	-3.4
COc1ccc2c(c1)[C@]13CCCCC1C(C2)N(C)CC3 (stereo not given in full)	-11.2	16.0	9.9	-2.0
c1ccc2c(c1)cc1ccc3cccc4ccc2c1c34	nt	-30.1	2.8	nt
N#CC(C#N)=Cc1ccc(O)c(O)c1	-1.5	-24.0	3.4	-2.2
O=[N+]([O-])c1ccccc1Cl	-14.0	10.2	2.6	-2.6

This is a subset. The share of hits here may be higher or lower than overall.
